# Screening data deposited in PubChem BioAssay by National Center for Advancing Translational Sciences (NCATS).
# AmpC inh no det = AmpC beta-lactamase inhibition, detergent-free assay | P00811 | AmpC nitrocefin hydrolysis, absorbance 480 nm, no detergent; potencies from a single point are estimates | Potency, µM (titrated, usually from 28.7 µM), for inactives: at the highest dose activity change, negative = inhibition | 71,000 compounds, 1.8% hits | AID 585; active = falling curve, for most hits resting on a single point; inconclusive = weak or doubtful change; inactive = flat or rising curve; also: % of control where 0% means no effect; about half of the hits show no inhibition at the top dose; a quarter of the inactives give rising signals
# Target sequence (P00811 whole entry, looked up): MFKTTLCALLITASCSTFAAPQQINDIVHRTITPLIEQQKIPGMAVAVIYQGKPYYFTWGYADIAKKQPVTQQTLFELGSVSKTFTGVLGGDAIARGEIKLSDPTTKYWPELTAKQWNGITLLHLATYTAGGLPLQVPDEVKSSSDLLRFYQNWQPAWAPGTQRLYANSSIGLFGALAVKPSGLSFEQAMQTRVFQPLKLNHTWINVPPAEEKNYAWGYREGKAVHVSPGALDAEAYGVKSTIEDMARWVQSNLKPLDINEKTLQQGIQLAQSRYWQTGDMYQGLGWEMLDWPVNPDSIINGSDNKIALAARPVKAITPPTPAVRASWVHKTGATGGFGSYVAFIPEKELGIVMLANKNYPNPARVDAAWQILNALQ
#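 AmpC, 20 mM phosphate pH 7.0; 15 min cpd preinc, RT; start with nitrocefin (800 uM stock); A480 kinetic read, 20 s intervals, 4 min. No-enzyme wells = negative control.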
# An asterisk follows results filed as active; ? = inconclusive; & = joins results of further samples; [ ] = another dose, or the depositor's remark. Potency is read from the fitted curve at half-maximal effect. Not all compounds are listed (hit frequency here may not be typical).
canonical_smiles | AmpC inh no det
Cc1ccc2c(c1)N(CC(=O)N1CCCc3ccccc31)C(=O)C(C)O2 (stereo not drawn) | 48%
O=C(COc1ccc(F)cc1)NC1CC1 | -7%
COc1cc(C(=O)Nc2nc(-c3cccs3)cs2)cc(OC)c1OC | 59%
CCC(=O)N(CCCN(C)C)c1nc(-c2cc(OC)ccc2OC)cs1 | 49%
CCCCC(c1nnnn1CCOC)N1CCN(C(=O)c2ccco2)CC1 (stereo not drawn) | 29%
c1ccc(N2CCC3(CCNCC3)CC2)cc1 | 34%
COc1ccc(C(=O)NCc2cccnc2)cc1C(=O)NCc1cccnc1 | -6%[12.8 µM]
COCCNC(=O)Cn1c(=O)n(CCC(=O)NCCc2ccccc2)c(=O)c2ccccc21 | 20%
CC(C)c1cc(C(=O)NCc2cccnc2)no1 | 1%
COc1ccc(C2(O)CCN(Cc3nnnn3Cc3ccc(F)cc3)CC2)cc1 | 115%
COc1cccc(CN2CCN(CC(=O)Nc3ccccc3Cl)CC2)c1 | 121%
Cn1c(=O)[nH]c(=O)c2c1nc(NCCCn1ccnc1)n2Cc1ccccc1 | 5%
COC(=O)c1ccc(C)c(NC(=O)Cn2cnc3ccccc3c2=O)c1 | -16%
CS(=O)(=O)Nc1ccc(N2CCCCC2)c(Cl)c1 | -8%
CCN(CC)CCNC(=O)CS(=O)Cc1nc(-c2ccccc2Cl)oc1C (stereo not drawn) | 15%
CCN(CC)S(=O)(=O)c1cccc2nsnc12 | -4%
Cc1nnc(SCc2nc3ccccc3c(=O)n2-c2ccccc2Cl)n1N | 9%
CC(=O)CC(C)(C)n1nnc(-c2ccccc2)n1 | -7%
Oc1ccccc1-c1cc(-c2ccc3c(c2)OCCO3)n[nH]1 | -6%
O=c1c2ccccc2oc2nc(C3CCCCC3)n(Cc3ccco3)c(=O)c12 | 18%
CCN(C(=O)CSc1ncn[nH]1)c1cccc2ccccc12 | 10%
N#CC1=C(SCc2ccccc2)NC(=O)C(C#N)C12CCCC2 (stereo not drawn) | -16%
O=c1c(-c2cccs2)nc2cnc(Nc3ccccc3)nc2n1C[C@H]1CCCO1 | -2%
CCCCCCCCN | -18%
CC(=O)NCCNc1nc(-c2ccc(N(C)C)cc2)nc2ccccc12 | 29%
O=C1C(c2[nH]c3ccccc3c2O)=Nc2ccccc21 | -7%
CCOC(=O)N1CCN(C(=O)c2ccc(CS(=O)(=O)c3ccc(OC)cc3)o2)CC1 | ?
O=C(C1CSC2(c3ccc(F)cc3)CCC(=O)N12)N1CCCCCC1 (stereo not drawn) | 13%
Cc1c(N=C/C=C2\N(C)c3ccccc3C2(C)C)c(=O)n(-c2ccccc2)n1C | 34%
CCOC(=O)c1cc(-c2ccccc2)sc1NC(=O)C(C)Sc1nnnn1C (stereo not drawn) | 72%
O=C(c1ccco1)N1CCN(S(=O)(=O)c2cccc(C(F)(F)F)c2)CC1 | 30%
Cc1nnc(N2CCc3ccccc3C2)[nH]c1=O | 8%
NNC(=O)[C@@H](O)[C@H](O)[C@H](O)CO | -2%[5.75 µM]
CC(C)[C@@H](CC(=O)N[C@@H]1CCCC[C@H]1C(=O)N[C@H](CC(=O)N[C@@H](CCC(=O)O)CC(=O)O)Cc1ccccc1)NC(=O)C[C@H](Cc1c[nH]c2ccccc12)NC(=O)[C@@H]1CCCC[C@H]1N | 140%
CN(C)S(=O)(=O)c1cc(C(=O)NCCCn2ccc3ccccc32)ccc1Cl | 26%
CCC(C)n1[nH]c(=O)cc1N (stereo not drawn) | 1%
Cc1ccc2nsnc2c1S(=O)(=O)N(Cc1cc2cccc(C)c2[nH]c1=O)CC1CCCO1 (stereo not drawn) | 87%
Cc1ccc(C)c(C(=O)c2c(C)nc3sccn23)c1 | 8%
O=C(Cc1ccc(F)cc1)N(c1ccc(F)cc1)C1C=CS(=O)(=O)C1 (stereo not drawn) | 21%
Cc1ccc2nc(SCC(=O)NCC3CCCO3)c(C#N)cc2c1 (stereo not drawn) | 7%
Cn1nnc(NC(=O)CSc2ncn[nH]2)n1 | -1%
COc1ccc(Cl)cc1NC(=O)CSc1nncn1-c1cccnc1 | 33%
COC(=O)c1cc(OC)c(OC)cc1NC(=O)CN1CCCCC1 | -7%
CC(C)(c1ccc(OCC2CO2)cc1)c1ccc(OCC2CO2)cc1 (stereo not drawn) | 59%
Cc1nnc(SCC(=O)Nc2cccc(C(F)(F)F)c2)n1Cc1ccco1 | 38%
COc1ccc(N2C(=O)C3CCCN3C2c2ccccc2F)cc1 (stereo not drawn) | 21%
O=C(COc1ccc(Cl)cc1)Nc1ccccc1N1CCOCC1 | 0%
Cc1cccnc1NC(=O)Nc1cccc(C(F)(F)F)c1 | -15%
c1cc2c(cc1-c1cnc3n1CCC3)OCCO2 | -9%
CN(C)c1ccc(NC(=O)c2ccncc2)c2ccccc12 | 9%

# The list continues.
canonical_smiles | AmpC inh no det
CC(=NCc1cccnc1)c1c(O)n(-c2ccc(C)cc2)c(=O)[nH]c1=O | -3%
COc1cc(NC(=O)CCN2CCN(Cc3ccccc3)CC2)cc(OC)c1 | 56%
CCCCOC(=O)Nc1ccc(N2CCOCC2)cc1 | 3%
O=c1c(-c2ccccc2)nc2cnc(Oc3cccc(Cl)c3)nc2n1C1CC1 | 1%
CCCC(=O)Nc1ccc(C(=O)N2CCCC2)cc1 | -9%
COc1cccc(N2CCN(C(=O)C3C4C=CC5(CN(Cc6ccccc6Cl)C(=O)C35)O4)CC2)c1 (stereo not drawn) | 112%
O=C(C1CCCN(S(=O)(=O)c2cnc[nH]2)C1)N1CCN(c2ccc(Cl)cc2)CC1 (stereo not drawn) | 97%
Cc1nc(N2CCCCC2)c2sc(=S)n(C)c2n1 | -6%
O=C(c1cccnc1NCc1ccccc1)N1CCOCC1 | -5%
CCOc1ccc(N(CC(=O)N2CCCC2)S(=O)(=O)c2c(C)noc2C)cc1 | 4µM*[single pt active]
Cc1cc(Cl)cc(Cl)c1OCC(=O)NCc1ccco1 | 9%
CCCN(Cc1cc2cc(OC)ccc2[nH]c1=O)C(=O)c1ccncc1 | 6%
CC(C)OC(=O)C1C(=O)CC(C)(O)C(C(=O)OC(C)C)C1c1cccnc1 (stereo not drawn) | 7%
CN1CCCC2(CCN(C(=O)c3cc(C(F)(F)F)cc(C(F)(F)F)c3)CC2)C1 | 20%
Cc1nc2c(-c3ccc(F)cc3)c(C)nn2c(N2CCOCC2)c1C | 85%
COC(=O)c1cc(-c2ccc3c(c2)OCO3)nc2ccccc12 | 26%
CCCCNC(=O)Cn1cnc2sc(C(=O)OCC)c(C)c2c1=O | -4%
O=C(Nc1ccc(N2CCOCC2)cc1)c1ccc(S(=O)(=O)N2CCCCC2)cc1 | 0%
Clc1ccc(/C=C\c2nc(Cl)c(-c3ccc(Cl)cc3)c(Cl)n2)cc1 | 4%[5.75 µM]
O=C1C2C3c4ccccc4C(c4ccccc43)C2C(=O)N1CN1CCOCC1 (stereo not drawn) | 14%

# Of the compounds above, 6 contain a furan ring, fused or not:
canonical_smiles | AmpC inh no det
CCCCC(c1nnnn1CCOC)N1CCN(C(=O)c2ccco2)CC1 (stereo not drawn) | 29%
O=c1c2ccccc2oc2nc(C3CCCCC3)n(Cc3ccco3)c(=O)c12 | 18%
CCOC(=O)N1CCN(C(=O)c2ccc(CS(=O)(=O)c3ccc(OC)cc3)o2)CC1 | ?
O=C(c1ccco1)N1CCN(S(=O)(=O)c2cccc(C(F)(F)F)c2)CC1 | 30%
Cc1nnc(SCC(=O)Nc2cccc(C(F)(F)F)c2)n1Cc1ccco1 | 38%
Cc1cc(Cl)cc(Cl)c1OCC(=O)NCc1ccco1 | 9%

# (cont.)
canonical_smiles | AmpC inh no det
O=C(COc1ccc(Cl)cc1Cl)N1CCCCCC1 | 37%
OC(c1ccccc1)C1CN(Cc2ccccc2)CCC1(O)c1ccccc1 (stereo not drawn) | 11%
O=C1C2C3C=CC(C3)C2C(=O)N1c1ncn[nH]1 (stereo not drawn) | -12%
N#Cc1cc2c(nc1SCc1cccnc1)CCCCC2 | 14%
Cc1ccc(CCNC(=O)CN2C(=O)COc3ccccc32)cc1 | 10%
CC(=O)NS(=O)(=O)c1ccc(NC(=O)CCC2CCCC2)cc1 | 1%
Cc1cc(C(=O)CSc2nc3ccccc3c(=O)n2C)c(C)n1Cc1ccc2c(c1)OCO2 | -22%
CC(C)c1nnc(NC(=O)c2cccs2)s1 | -3%
CCCCCCN(C(=O)CCCCCN1C(=O)NC(c2ccc(-c3ccccc3)cc2)C(C(=O)OCc2ccccc2)=C1C)C(C(=O)NCCCC)c1ccc(OCC(=O)OC)c(C(=O)OC)c1 (stereo not drawn) | 54%
Cc1ccc(OCC(=O)Nc2cccc(-c3nnc(-c4ccccc4)o3)c2)cc1 | -6%

# Overlap with the part before: 2 entries, followed by the next part.
canonical_smiles | AmpC inh no det
CCCCCCN(C(=O)CCCCCN1C(=O)NC(c2ccc(-c3ccccc3)cc2)C(C(=O)OCc2ccccc2)=C1C)C(C(=O)NCCCC)c1ccc(OCC(=O)OC)c(C(=O)OC)c1 (stereo not drawn) | 54%
Cc1ccc(OCC(=O)Nc2cccc(-c3nnc(-c4ccccc4)o3)c2)cc1 | -6%
Cc1noc(C)c1COC(=O)C1COc2ccccc2O1 (stereo not drawn) | 14%
COc1ccc(C(=O)N2CCC3(CCN(Cc4ccc(C#N)cc4)CC3)CC2)cc1 | 56%
CCOC(=O)c1ccc(NC(=O)c2ccc(NS(C)(=O)=O)cc2)cc1 | 5%
CC1CCCCC1NC(=O)CSc1nnc(-c2ccccc2)n1N (stereo not drawn) | 19%
Cc1ccc(S(=O)(=O)Cn2nnnc2C(CC(C)C)N2CCN(C(=O)c3ccco3)CC2)cc1 (stereo not drawn) | 127%
Cc1nc(NC(=O)c2ccco2)sc1C(=O)Nc1ccc(Br)cc1 | 12%
CO[C@H]1[C@H](O[C@H]2O[C@@H](C)[C@@H](O[C@@H]3C[C@](C)(O)[C@H](OC(=O)CC(C)C)[C@H](C)O3)[C@@H](N(C)C)[C@@H]2O)[C@@H](CC=O)C[C@@H](C)[C@@H](O)/C=C\C=C/C[C@@H](C)OC(=O)C[C@H]1OC(C)=O | 138%[12.8 µM]
C#CCn1c(=NC(=O)CSCC(=O)N2CCOCC2)sc2ccccc21 | 32%
CCOC(=O)C1=C(C)NC2=C(C(=O)CCC2)C1c1cc(OC)ccc1OC (stereo not drawn) | 4%
CCNC(=O)CN(c1ccc(CC)cc1)S(C)(=O)=O | 7%
Cc1cc(OCC(=O)N2CCOCC2)cc2oc(=O)c3ccccc3c12 | 59%
O=C(c1cnccn1)N1CCC2(CC1)CCN(c1cccc(-c3ccccc3)c1)CC2 | 150%
CCOC(=O)c1c(C)c(C(=O)NCCc2ccc(S(N)(=O)=O)cc2)c(C)n1CC | 9%
Cc1ccc(NC(=O)N2CCC(C(=O)NCC(C)C)CC2)cc1 | 6%
O=S(=O)(NCCNS(=O)(=O)c1ccccc1)c1ccccc1 | -15%
CC1=CCC(C(C)(C)NC(=O)c2ccccc2)C/C1=N\O (stereo not drawn) | -2%
CCCn1c(C)cc(C(=O)CN2C(=O)c3ccccc3C2=O)c1C | 32%
CCS(=O)(=O)N1CCC(C(=O)NCc2cccs2)CC1 | 0%
CCN(CC)CCNC(=O)CCCCn1c(=S)[nH]c2c([nH]c3ccc(OC)cc32)c1=O | 24%
CC1=C(C(=O)OCC(C)C)C(c2ccc(F)cc2)NC(=O)N1 (stereo not drawn) | 4%
COc1ccc(/C=N/n2cnnc2SCc2ccccc2)cc1 | 136%
COC(=O)c1ccc(C(NC(=O)OCc2ccccc2)/C(=C/[C@@H](C)C(=O)Nc2ccccc2)c2cccnc2)cc1 (stereo partly drawn) | 85%
Cc1ccc(Cn2ccc(NC(=O)c3cc(-c4ccc5c(c4)OCO5)on3)n2)cc1 | 10µM*
Cc1c(NS(=O)(=O)N2CCCC2)c(=O)n(-c2ccccc2)n1C | -10%
C[C@@]1(C(=O)O)CCC[C@@H]1C(=O)O | -1%[5.75 µM]
Cc1ccc(S(=O)(=O)N(Cc2cc3cc4c(cc3[nH]c2=O)OCCO4)CC2CCCO2)cc1 (stereo not drawn) | 4%
N=c1sccn1CC(=O)Nc1ccccc1Cc1ccccc1 | -12%
CCOC(=O)C1=C(CN2CCOCC2)NC(=O)NC1c1cc(C)ccc1C (stereo not drawn) | 57%
COc1ccccc1N1CCN(C(=O)C2c3ccccc3Oc3ccccc32)CC1 | 102%
CC(C)CC(c1nnnn1CCc1ccccc1)N1CCN(C(=O)c2ccco2)CC1 (stereo not drawn) | 124%
Cc1nc2ccccc2c2c1C(=O)N(C)C2=O | 9%
O=C(O)[C@@H]1[C@@H]2O[C@H]([C@@H](Br)[C@H]2Br)[C@H]1C(=O)O | 6%[5.75 µM]
CN1[C@H]2CC(OC(=O)[C@H](CO)c3ccccc3)C[C@H]1[C@H]1O[C@H]12 (stereo partly drawn) | -7%&-14%
CCOc1cc2c(cc1OCC)C(C(=O)O)C(c1cc(Br)c(O)c(OC)c1)N(C)C2=O (stereo not drawn) | -18%
CCN(CC)C(=O)c1ccc2c(c1)N(Cc1ccccc1)C(=O)CS2=O (stereo not drawn) | 6%
OCCn1cnc2c(SCc3ccccc3)ncnc21 | 14%[5.75 µM]
O=C1CCCN1c1cc(Cl)ccc1Cl | 3%
COc1ccc(OC)c(N2C(=O)C(Cl)=C(N3CCOCC3)C2=O)c1 | 24%
CN(CC(=O)N1CCc2ccccc2C1)S(=O)(=O)c1ccc2c(c1)c(=O)n(C)c(=O)n2C | 4µM*[single pt active]
CCc1ccc(C(=O)Nc2ccc(S(=O)(=O)Nc3nc(C)cc(C)n3)cc2)o1 | 6%
COc1cc(C(=O)Nc2ccc(N(C)C)cc2)cc(OC)c1OC | 12%
O=C(Nc1cccc(F)c1)C1CCCN1S(=O)(=O)c1cccc2cccnc12 (stereo not drawn) | -5%
